From PubChem
MenB inh: M. tuberculosis MenB inhibitors, primary screen, biochemical, absorbance; 1,4-dihydroxy-2-naphthoyl-CoA synthase (Mycobacterium tuberculosis (strain ATCC 25618 / …; MenB enzyme assay, absorbance read-out; some hits fall short of the stated cut; inhibition, %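 (about 12 µg/mL by stock and volumes)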; 0.43% of 100,000 active;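 active means mean of two replicates above 30%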;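 further: 0% = no compound and 100% = wells with inactive enzyme; the first replicate is given; strong numbers were not always called active; inactives centre near -10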
Mtb MbtI inh: MbtI salicylate synthase inhibitors, primary screen, biochemical, fluorescence intensity | P9WFX0 | purified MbtI enzyme, fluorescence intensity read-out | 0.89% of 100,000 active | inhibition, %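 (about 17 µg/mL by stock and volumes)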;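 active means above 50% in both replicates, above 80% if mildly self-fluorescent; inactive means the rest, strongly fluorescent compounds included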;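 further: 0% = mean of negative and 100% = mean of positive controls; one replicate is shown; some compounds called inactive have numbers as strong as hits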
Target sequence (P9WFX0 whole entry, looked up): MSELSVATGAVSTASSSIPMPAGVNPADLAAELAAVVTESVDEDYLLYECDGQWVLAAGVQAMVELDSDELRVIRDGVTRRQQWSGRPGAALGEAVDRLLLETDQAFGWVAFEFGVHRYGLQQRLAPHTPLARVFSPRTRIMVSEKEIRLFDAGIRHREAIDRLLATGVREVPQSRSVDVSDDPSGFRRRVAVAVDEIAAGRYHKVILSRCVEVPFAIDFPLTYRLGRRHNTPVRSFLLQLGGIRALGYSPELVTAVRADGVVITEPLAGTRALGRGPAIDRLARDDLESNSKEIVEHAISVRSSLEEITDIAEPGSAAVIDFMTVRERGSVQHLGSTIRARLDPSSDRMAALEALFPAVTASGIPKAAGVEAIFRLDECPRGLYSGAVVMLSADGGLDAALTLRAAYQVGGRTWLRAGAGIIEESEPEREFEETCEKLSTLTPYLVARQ
PV pol inh: poliovirus RdRp elongation inhibitors, primary screen, biochemical, fluorescence polarization, total intensity. AID 588519, 2011. poliovirus polymerase elongation; active compounds read low. 0.66% of 150,000 active. % elongation, % (compound at 16.7 µg/mL). Genome polyprotein (Poliovirus type 1 (strain Mahoney)), P03300; in the data active means % elongation below about 90%; further: some results filed as inactive read as strong as hits
Target sequence (P03300 1749-2209 limits assumed): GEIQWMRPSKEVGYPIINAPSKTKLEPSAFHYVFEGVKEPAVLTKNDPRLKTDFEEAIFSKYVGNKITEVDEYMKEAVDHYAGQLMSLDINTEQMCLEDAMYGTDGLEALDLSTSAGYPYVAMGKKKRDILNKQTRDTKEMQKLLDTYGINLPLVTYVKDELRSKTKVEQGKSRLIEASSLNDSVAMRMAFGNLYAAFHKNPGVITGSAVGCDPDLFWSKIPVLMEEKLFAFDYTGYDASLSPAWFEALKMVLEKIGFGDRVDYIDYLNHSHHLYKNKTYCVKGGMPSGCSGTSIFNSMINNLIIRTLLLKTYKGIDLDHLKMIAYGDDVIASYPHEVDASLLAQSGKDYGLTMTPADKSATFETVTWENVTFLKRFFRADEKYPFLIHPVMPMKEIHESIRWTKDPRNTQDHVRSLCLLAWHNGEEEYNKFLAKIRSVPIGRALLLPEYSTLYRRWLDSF
PV pol inh intensity: second read-out of PV pol inh, no call of its own (marks repeat the call); % elongation; measured here: total intensity read-out; formula for this scale not given here;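 total fluorescence in place of polarization; lower means less elongation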
Numbers without * were called inactive; · = no result given. Rows were taken by chance; about 1.8% have a hit in one of these screens.

Order of results: Mtb MbtI inh	PV pol inh	PV pol inh intensity	MenB inh
CCOc1ccccc1N(C)C(=O)Cc1noc2ccccc12
 : -20	101	102	-12
COc1ccccc1N1CCNCC1=O
 : 2	103	103	4
O=C(CCSc1nnc(-c2ccccc2)o1)Nc1ccc(F)cc1
 : -15	101	104	5
CC1Cc2ccccc2N1CC(=O)NCc1cccs1 (configuration not stated)
 : -3	104	109	13
O=C(O)/C=C/c1ccc(S(=O)(=O)Nc2cccc(C(=O)O)c2)cc1
 : ·	103	94	9
O=C1S/C(=C/c2ccc(F)cc2)C(=O)N1CN1CCCCC1
 : 1	101	101	-12
CCOC(=O)C(C)Oc1ccc2c(=O)c(-c3csc(C)n3)coc2c1 (configuration not stated)
 : 2	102	106	-20
Cc1ccc(CSCC(=O)Nc2ccccc2)cc1
 : ·	109	104	-16
O=C(O)CC(Sc1cccs1)C(=O)O (configuration not stated)
 : ·	99	106	-3
CC(=O)N1CCN(C(=O)c2cn(-c3ccccc3)nc2-c2ccc(C)cc2)CC1
 : -16	104	106	·
Cn1nc(C(F)(F)F)c(-c2ccc(Br)cc2)c1NC(=O)c1ccco1
 : -4	101	99	-3
CSc1cccc(NS(=O)(=O)c2ccc3[nH]cc(C(=O)N(C)CCC#N)c(=O)c3c2)c1
 : 7	98	102	-3
CCN1CCN(CCNC(=O)c2ccc(CS(=O)c3ccccc3C)o2)CC1 (configuration not stated)
 : -12	101	106	-1
COc1ccc(C(=O)O)cc1S(=O)(=O)N(C)c1ccccc1
 : 3	100	102	-16
O=C(NCc1ccccc1)C1C2CCCCC21 (configuration not stated)
 : ·	107	105	-12
O=C(CN(Cc1ccccc1)S(=O)(=O)c1ccccc1)NC1=NCCS1
 : -16	106	105	-16
Cc1cc(N2CCN(C)CC2)nc2ccc(NC(=O)C3CCC(C(C)(C)C)CC3)cc12 (configuration not stated)
 : -23	103	102	-48
CC(=O)N1Cc2ccccc2CC1C(=O)OCc1ccc(C#N)cc1 (configuration not stated)
 : -8	101	108	2
O=C(O)c1ccc(C(=O)O)s1
 : -9	99	101	-22
C=CCN1C(=O)SC(CC(=O)Nc2ccccc2)C1=O (configuration not stated)
 : -2	100	100	8
COc1ccc(NC(=O)C2CCCCN2/N=C/c2ccc(OC)c(OCC(C)C)c2)cc1OC (configuration not stated)
 : ·	103	113	-10
COc1ccc(N2C(=O)CC2(/C=C/c2ccccc2)C(=O)NC2CCCCC2)cc1 (configuration not stated)
 : ·	101	105	-10
CCCCC1(c2ccccc2)NC(=O)NC1=O (configuration not stated)
 : 6	103	100	-11
O=C(Nc1ccc(F)cc1)Nc1ccc2c(c1)C(=O)OC2
 : -33	98	102	-6
NC1=NC(=O)/C(=C\c2ccccc2C(F)(F)F)S1
 : ·	111	109	-14
CCSc1nnc(NC(=O)C(C)Sc2ccccc2)s1 (configuration not stated)
 : 1	100	102	-21
CSc1ccccc1NC(=O)CSc1nccn1C
 : -7	102	102	·
O=C(CN1C(=O)C2C3C=CC(C3)C2C1=O)OCCCc1ccccc1 (configuration not stated)
 : -9	104	96	-19
Cc1ccc(Sc2c(-c3ccccc3)nc3sccn23)cc1
 : -13	103	107	-24
O=C1N/C(=N/N=C/c2cccs2)SC1Cc1ccccc1 (configuration not stated)
 : -8	101	103	-29

The final 2 records of the section before come first, to join the parts.
Order of results: Mtb MbtI inh	PV pol inh	PV pol inh intensity	MenB inh
Cc1ccc(Sc2c(-c3ccccc3)nc3sccn23)cc1
 : -13	103	107	-24
O=C1N/C(=N/N=C/c2cccs2)SC1Cc1ccccc1 (configuration not stated)
 : -8	101	103	-29
CCC1CCC2(CC1)NNC(=S)NN2
 : ·	98	102	-30
CCN(C(=O)COc1ccc(Cl)cc1Cl)c1cccc(C)c1
 : -3	104	102	·
C=CCn1c(C)cc(C(=O)COC(=O)C2C(C(=O)OCC)=C(C)NC(C)=C2C(=O)OCC)c1C
 : -134	104	98	0
C=CCN1C(=O)/C(=C\c2ccc(N(CC)CC)cc2)C(=O)NC1=S
 : 79*	100	102	-35
Cc1cccc2[nH]ncc12
 : 9	100	102	-10
C=CCOc1c(CNc2ccc(C(=O)O)cc2)cccc1OCC
 : -41	102	104	-24
CC1C/C(=C/c2ccncc2)C(=O)/C(=C/c2ccncc2)C1 (configuration not stated)
 : 17	96	100	4
CC(C#N)OC(=O)c1c(-n2cccc2)sc2c1CCCC2 (configuration not stated)
 : 12	104	99	6
CC(=O)NCc1ccc(C(=O)CSc2nc(C)nc3scc(-c4cccs4)c23)o1
 : -1	103	112	-9
Cc1ccc(OCC(=O)O)c(C)c1
 : ·	105	107	-13
O=C(NC1CCCCC1)C(c1ccccn1)N(C(=O)Cn1nnc(-c2ccccc2)n1)c1ccc2c(c1)OCO2 (configuration not stated)
 : -4	102	102	-6
COc1ccc2[nH]c3c(=O)n(CCN4CCC(Cc5ccccc5)CC4)cnc3c2c1
 : 34	102	105	-18
Cc1ccc(NC(=O)CSc2ncccn2)c(S(=O)(=O)N2CCCCC2)c1
 : 6	106	111	-5
COc1ccc(N2C(=O)CC(N3CCCCC3C)C2=O)cc1 (configuration not stated)
 : 20	101	101	26
Cc1ccc(SCCNC(=O)c2ccc3ccccc3n2)cc1
 : ·	96	104	-21
O=C(COc1ccccc1F)NN1C(=O)NC2(CCCCC2)C1=O
 : -7	105	96	-11
COc1ccc2oc(C(=O)OCC#N)c(C)c2c1
 : 103	100	107	-22
CC(OC(=O)c1cccnc1)C(=O)Nc1ccc2c(c1)OCO2 (configuration not stated)
 : -2	102	104	-18
CC(=O)Nc1ccccc1C(=O)C(=S)N1CCN(C)CC1
 : 14	101	110	-39
O=c1[nH]c(=S)n(-c2cccc3ccccc23)c(O)c1/C=C1\C=Nc2ccccc21
 : ·	113	111	-30
C=CCC1CC(=O)N(c2ccc(Cl)cc2)C1=O (configuration not stated)
 : -5	100	98	-27
O=C(O)C1C2C=CC(C2)C1C(=O)NC1CCN(Cc2ccccc2)CC1 (configuration not stated)
 : -24	101	100	3
Cc1ccc2c(c1)C1CN(C)CCC1N2C(=O)Cn1nnc(-c2ccccc2C)n1 (configuration not stated)
 : ·	104	109	-7
Cc1ccc(NC(=S)NCCCN2CCN(c3cc(Cl)ccc3C)CC2)c(Cl)c1
 : 4	103	104	-47
COc1ccc(C2=C/C(=C/c3ccco3)C(=O)O2)cc1
 : -18	103	108	-22
Cc1c(Cc2ccccc2)c(=O)oc2cc(OC(C)C)ccc12
 : 104	101	106	-28
Cc1ccoc1C(=O)NCCN
 : ·	104	110	-17
COC(=O)CSc1nnc(COc2ccc(C(C)C)cc2)o1
 : 29	106	97	-77
Cc1ccc(N(C)C(=O)Cn2c(=O)oc3cc(S(=O)(=O)N4CC(C)CC(C)C4)ccc32)cc1 (configuration not stated)
 : -8	102	104	-25
CCOC(=O)C1CCN(Cn2nc(Nc3ccc(CC)cc3)sc2=S)CC1
 : 81	105	101	-10

Part of the list above with just Mtb MbtI inh, MenB inh and PV pol inh intensity.
compound,Mtb MbtI inh,MenB inh,PV pol inh intensity
CC(OC(=O)c1cccnc1)C(=O)Nc1ccc2c(c1)OCO2 (configuration not stated),-2,-18,104
CC(=O)Nc1ccccc1C(=O)C(=S)N1CCN(C)CC1,14,-39,110
O=c1[nH]c(=S)n(-c2cccc3ccccc23)c(O)c1/C=C1\C=Nc2ccccc21,·,-30,111
C=CCC1CC(=O)N(c2ccc(Cl)cc2)C1=O (configuration not stated),-5,-27,98
O=C(O)C1C2C=CC(C2)C1C(=O)NC1CCN(Cc2ccccc2)CC1 (configuration not stated),-24,3,100
Cc1ccc2c(c1)C1CN(C)CCC1N2C(=O)Cn1nnc(-c2ccccc2C)n1 (configuration not stated),·,-7,109

Among those listed so far, these contain a Cl atom:
Order of results: Mtb MbtI inh	PV pol inh	PV pol inh intensity	MenB inh
CCN(C(=O)COc1ccc(Cl)cc1Cl)c1cccc(C)c1
 : -3	104	102	·
C=CCC1CC(=O)N(c2ccc(Cl)cc2)C1=O (configuration not stated)
 : -5	100	98	-27
Cc1ccc(NC(=S)NCCCN2CCN(c3cc(Cl)ccc3C)CC2)c(Cl)c1
 : 4	103	104	-47

More records
Order of results: Mtb MbtI inh	PV pol inh	PV pol inh intensity	MenB inh
O=C(Nc1cccc(-c2nnc(-c3ccccc3)o2)c1)C1CC1
 : -23	101	102	-22
COc1cccc(CCNC(=O)C2CCCN(c3ncnc4c3nc3n4CCCCC3)C2)c1OC (configuration not stated)
 : 11	103	103	-4
CCc1ccccc1NC(=O)Nc1cnccn1
 : 26	103	101	-20
CCCCC1CCC(c2ccc(C(=O)O)cc2)CC1 (configuration not stated)
 : 0	101	104	-24
Cc1sc2ncnc(Nc3ccc(CN4CCOCC4)cc3)c2c1C
 : 0	104	94	-27
CC(Sc1nnnn1-c1ccccc1)C(=O)O (configuration not stated)
 : ·	100	95	2
N#Cc1ccccc1Sc1ccccc1C(=O)NC(Cc1ccccc1)C(N)=O (configuration not stated)
 : ·	103	96	-9
COC(=O)c1ccc(CSc2ncccn2)o1
 : -5	102	103	-23
CC(C)c1nc2ccccc2n1CC(=O)N1N=C(c2ccc(Cl)cc2)CC1c1ccco1 (configuration not stated)
 : 20	113	112	-12
O=c1cc(CO)oc(CN2CCC(Cc3ccccc3)CC2)c1O
 : 8	110	113	-17
CCOC(=O)c1c(NC(=O)CSc2ncn(-c3ccccc3)n2)sc2c1CCCC2
 : 4	103	103	-6
COc1ccc(N2CCN(C(=O)c3cc4sccc4n3Cc3ccccc3)CC2)cc1
 : 6	103	105	-35
CC1CCN(C(=O)COC(=O)c2nccnc2N)CC1
 : 102	97	115	-16
CCCc1cc(-c2[nH]ncc2-c2ccc(C(=O)NN)o2)c(O)cc1O
 : -15	104	109	-6
CCOC(=O)c1ccc(S(=O)(=O)n2c(=O)oc3ccccc32)cc1
 : 10	98	104	-15
CC1CCN(CC(=O)C(C#N)c2ccccc2)CC1 (configuration not stated)
 : -4	106	100	-8
COc1ccc(-c2cc(C(F)(F)F)nc(NCC3CCCO3)n2)cc1 (configuration not stated)
 : 49	98	98	-12
CCOC(=O)COc1ccccc1/C=C1\N=C(SCC)SC1=O
 : -14	103	104	-17
CC(C)(C)C(=O)Cn1cnc2ccccc2c1=O
 : 5	100	103	-1
COc1ccc2cc3cc(C(=O)N(C)C4CCCCC4)oc3nc2c1
 : -60	104	105	-13
Cc1nc(-c2ccccn2)nc(SCC(=O)c2ccc(F)cc2)c1Cl
 : 9	102	100	-18
CCn1c(SCC(=O)N2CCc3ccccc32)nnc1C(C)C
 : -4	101	103	8
CSc1nc(C)cc(OCCNC(=O)Nc2ccccc2)n1
 : -9	101	103	5
CCOc1ccc(CC(=O)C2C(=O)CC(C)(C)CC2=O)cc1OCC
 : ·	104	108	-20
C=CCC(NCCc1ccccc1)c1ccco1 (configuration not stated)
 : ·	104	108	9
O=C(CSc1cccc[n+]1[O-])NC(=O)C1COc2ccccc2O1 (configuration not stated)
 : 11	100	94	-24
CC1=C(C(=O)OC(C)C)C23C(=O)c4ccccc4C2(O1)OC(N)=C3C#N (configuration not stated)
 : 2	99	97	-9
COc1ccc(-c2[nH]ncc2CN2CCC(c3ccccc3OC)CC2)cc1
 : -5	108	114	-1
COc1cc(-c2c(C#N)c(N)nc3[nH]c(=S)[nH]c(=O)c23)ccc1O
 : 4	100	100	-30
COc1cccc(/C=N/N=C(N)N)c1O
 : 18	101	98	-26
c1ccc(N2CCN(N=C3c4ccccc4-c4ccccc43)CC2)nc1
 : -14	104	102	-120
CCOC(=O)c1sc2nc(SCc3cccc(Cl)c3)n(Cc3cccs3)c(=O)c2c1C
 : 1	103	105	-15
COc1ccc(C(CC(=O)NCc2ccccn2)N2Cc3ccccc3C2=O)cc1OC (configuration not stated)
 : -22	103	105	-18
CNC(=O)C1=CC(C)(C)NC1(C)C
 : ·	103	93	-24
CC(NC(=O)c1cnn2c(C(F)(F)F)cc(-c3cccs3)nc12)c1ccccc1 (configuration not stated)
 : 4	102	104	-56
COc1cc2c(cc1OC)N1C(=O)c3ccccc3C1(O)OC2=O (configuration not stated)
 : -17	99	106	9
CCn1c2ccccc2c2cc(NC(=O)CO)ccc21
 : -61	102	107	-14
Cn1ncc(C(=O)Sc2ccc(Cl)cc2)c1-n1cccc1
 : 30	99	96	4
Cc1ccccc1N(C)C(=O)c1coc(=O)c2ccccc12
 : -5	103	103	4
CC(C)C(=O)Nc1c(-c2nc(-c3ccccc3)cs2)cnn1-c1ccccc1
 : 16	103	103	12
NNC(=O)c1ccc[nH]1
 : 3	100	103	7
CCOc1ccc(NC(=O)COC(=O)CC2CCCCC2)cc1
 : -6	101	105	0
Cc1cccc(N=C2NN=C(c3cc(C)n(C)c3C)CS2)c1C
 : 2	106	107	-24
CCOC(=O)Cn1c(-c2cccnc2)nc(-c2ccccc2)c1-c1ccccc1
 : -76	102	101	-7
COC(=O)Cc1csc(Nc2ccc(Cl)cc2)n1
 : 5	98	103	-7
O=C(NCc1ccccc1)Nc1ccc(Cl)cc1
 : 6	99	104	10
O=C(NCC1CCCO1)c1cc2ccccc2o1 (configuration not stated)
 : -2	101	102	-7
O=C1NC(=O)C(=Cc2ccc(OCc3ccc(C(=O)O)o3)cc2)C(=O)N1
 : 58	101	100	-24
Cc1ccc(S(=O)(=O)NC(CC(=O)N2CCC3(CC2)OCCO3)c2ccco2)cc1 (configuration not stated)
 : 3	100	102	-23
c1ccc2c(-c3csc(-c4ccncc4)n3)c[nH]c2c1
 : ·	115	130	-20
Nc1cccc(-c2ccc(CO)o2)c1
 : 109	103	105	-22
